From PubChem BioAssay
RGS16-Gao HTS: modulators of RGS16 binding to Galphao, primary screen, biochemical, human proteins, multiplexed bead flow cytometry | Regulator of G-protein signaling 16 (Homo sapiens) + Guanine nucleotide-binding protein … | bead-based flow cytometry RGS16-Galphao binding, fluorescence; actives lie on both sides | binding response (% of control), % at 10 µM | 220,000 tested, 0.38% active | AID 1441, 2008;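 active = below 25% or above 175%, edge rows of some plates excepted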;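 also: Galphao activated by GDP with aluminum fluoride before binding; 100% = wells without compound and 0% = beads without RGS; some results beyond the cut were filed as inactive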
Target sequence (O15492 whole entry, looked up): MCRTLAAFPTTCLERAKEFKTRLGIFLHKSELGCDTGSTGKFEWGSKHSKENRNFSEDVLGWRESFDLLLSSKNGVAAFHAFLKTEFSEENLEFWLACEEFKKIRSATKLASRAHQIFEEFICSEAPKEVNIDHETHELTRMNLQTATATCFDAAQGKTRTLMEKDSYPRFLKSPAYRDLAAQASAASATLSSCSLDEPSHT
Target sequence (P09471 whole entry, looked up): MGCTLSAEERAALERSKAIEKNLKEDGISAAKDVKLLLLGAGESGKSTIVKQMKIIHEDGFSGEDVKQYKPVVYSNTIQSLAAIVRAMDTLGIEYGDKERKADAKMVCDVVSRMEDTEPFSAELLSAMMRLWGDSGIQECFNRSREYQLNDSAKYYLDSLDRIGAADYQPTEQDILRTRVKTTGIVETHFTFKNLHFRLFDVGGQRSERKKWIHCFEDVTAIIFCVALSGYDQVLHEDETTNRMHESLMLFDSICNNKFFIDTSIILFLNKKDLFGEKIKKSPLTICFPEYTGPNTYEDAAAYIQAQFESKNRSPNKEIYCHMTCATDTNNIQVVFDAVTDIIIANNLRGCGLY
Insulin prom inh: inhibitors of insulin promoter-driven GFP, primary screen, imaging, TRM-6 cells (human fetal islet line), eGFP reporter, cell count; 130,000 tested, 0.9% active; reporter expression induced with tamoxifen; inhibition, % at 2 µM;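 active = inhibition above the mean plus 3 SD, with well images judged a real hit on visual review, cut at about 60% in these data, passing the limit was not always enough; inconclusive = inhibition over the cutoff but images rejected on review; inactive = inhibition not above the cutoff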
GALR2 agonist: GALR2 receptor agonists, primary screen, cell-based | Galanin receptor type 2 (Homo sapiens), O43603 | GALR2-expressing cells, agonist activation read-out | activation, %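 (tested at 5 µM)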 | 140,000 tested, 0.48% active;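 active = above mean plus 3 SD of all compounds, about 5% in these data, not always enough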;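 also: 0% = vehicle buffer wells and 100% = reference agonist at full effect; tested in CHO reporter cells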
Target sequence (O43603 whole entry, looked up): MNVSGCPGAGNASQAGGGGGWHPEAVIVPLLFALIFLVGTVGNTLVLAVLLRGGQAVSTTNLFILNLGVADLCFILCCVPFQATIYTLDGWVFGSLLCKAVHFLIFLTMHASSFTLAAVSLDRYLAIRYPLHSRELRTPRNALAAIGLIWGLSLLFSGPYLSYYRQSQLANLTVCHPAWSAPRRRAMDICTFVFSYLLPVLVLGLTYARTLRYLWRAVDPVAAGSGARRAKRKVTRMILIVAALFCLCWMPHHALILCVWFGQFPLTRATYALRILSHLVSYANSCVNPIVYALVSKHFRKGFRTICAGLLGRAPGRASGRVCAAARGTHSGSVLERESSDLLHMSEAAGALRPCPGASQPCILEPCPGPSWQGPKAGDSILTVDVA
HSV augment: enhancers of HSV replication in host cells, fold increase, host cell viability; HSV replication augmentation in cells; maximum fold increase; 220,000 tested, 0.005% active;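 active = peak rise of 1.5-fold or more in the series; inconclusive = self-fluorescent or not available for retest; tested in PC3 cells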;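 also: first round at 10 µM; read as green reporter fluorescence; hits show the peak of a series up to 25 µM; 1 = signal of infected wells without compound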
PKD1 inh: inhibitors of human PKD1 kinase, biochemical, fluorescence polarization. Serine/threonine-protein kinase D1 (Homo sapiens), Q15139. PKD1 kinase fluorescence polarization assay. inhibition, %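 (about 10 µM by stock and volumes)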. 200,000 tested, 0.056% active. AID 797, 2007;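 active = inhibition of 50% or more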;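 also: controls were vehicle for no effect and a reference inhibitor for full effect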
Insulin prom inh cell count: second read-out of Insulin prom inh, no call of its own (marks repeat the call); normalized cell count, %; measured here: cell count, toxicity; reference of the scale not given here;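 cells exposed to compound for 48 h; stained nuclei by imaging scaled within each plate; lower means fewer cells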
HSV augment primary fold: further read-out of HSV augment, marked with its call; fold increase; compound at 10 µM; measured here: primary screen fold increase 10 uM; tested in PC3 cells;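 GFP signal in the first replicate; 1 = infected wells without compound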
* = called active by the depositor; i = inactive; u = inconclusive; x = no result given.

SMILES	RGS16-Gao HTS	Insulin prom inh	Insulin prom inh cell count	GALR2 agonist	HSV augment	HSV augment primary fold	PKD1 inh
CC(C)CNS(=O)(=O)c1ccc2c(c1)OCCO2	95	4	158	-2.6	i	1.1	-1
Fc1ccc(C(c2nnnn2Cc2cccs2)N2CCN(c3ccccc3)CC2)cc1 (stereo not given)	112	67	59	-1.9	i	0.92	-6
COC(=O)CCCC1=CC2=CC(=O)C(C)(OC(=O)c3cccs3)C(=O)C2=CN1Cc1ccco1 (stereo not given)	100	x	x	x	i	0.88	x
O=S(=O)(c1cc(Cl)ccc1Cl)N1CCCC1	104	-16	122	-2.1	i	0.86	0
Cc1cccc2c1nc(-c1ccccc1)n1nnnc21	103	x	x	-0.3	i	1	-3
NC(=O)N/N=C/c1cccc(OCc2ccc(F)cc2)c1	99	0	56	x	i	0.96	3
CCOCCCNC(=O)C1CCCN1C(=O)Nc1ccccc1[N+](=O)[O-] (stereo not given)	64	-42	87	x	i	1.1	1
CC1(C(=O)NCCN2CCOCC2)C=CCN1C(=O)c1ccccc1 (stereo not given)	98	24	115	-1.0	i	0.8	-3
Cc1ccc(/C=N/NC(=O)Cn2nnc(N)n2)cc1	105	x	x	x	i	1	x
CC(C)(C)NCCOCCOc1ccccc1-c1ccccc1	103	x	x	-0.9	i	0.98	0

Random excerpt: six records from the list
SMILES	RGS16-Gao HTS	Insulin prom inh	Insulin prom inh cell count	GALR2 agonist	HSV augment	HSV augment primary fold	PKD1 inh
CCOCCCNC(=O)C1CCCN1C(=O)Nc1ccccc1[N+](=O)[O-] (stereo not given)	64	-42	87	x	i	1.1	1
O=S(=O)(c1cc(Cl)ccc1Cl)N1CCCC1	104	-16	122	-2.1	i	0.86	0
NC(=O)N/N=C/c1cccc(OCc2ccc(F)cc2)c1	99	0	56	x	i	0.96	3
COC(=O)CCCC1=CC2=CC(=O)C(C)(OC(=O)c3cccs3)C(=O)C2=CN1Cc1ccco1 (stereo not given)	100	x	x	x	i	0.88	x
Fc1ccc(C(c2nnnn2Cc2cccs2)N2CCN(c3ccccc3)CC2)cc1 (stereo not given)	112	67	59	-1.9	i	0.92	-6
CC(C)(C)NCCOCCOc1ccccc1-c1ccccc1	103	x	x	-0.9	i	0.98	0

Further results
SMILES	RGS16-Gao HTS	Insulin prom inh	Insulin prom inh cell count	GALR2 agonist	HSV augment	HSV augment primary fold	PKD1 inh
CCOC(=O)C(NC(=O)c1cccc(Cl)c1)(OCc1ccc(F)cc1)C(F)(F)F (stereo not given)	105	8	162	-0.2	i	0.98	5
O=C(CN1CCN(c2cccc(Cl)c2)CC1)Nc1ccc([N+](=O)[O-])cc1C(=O)Nc1ccccc1F	103	-27	94	-2.6	i	0.91	-12
O=c1oc2cc(Cl)ccc2n1CSc1nc2ccccc2s1	110	3	90	-2.1	i	0.9	1
CCCC(=O)Nc1ccc2c(c1)nc1n2CCOC1	90	x	x	-2.4	i	0.78	12
Cc1nn(-c2ccc(C(=O)O)cc2)c(=O)c2ccccc12	109	x	x	-1.4	i	0.94	4
CCOC(=O)Nc1nnc(CCc2ccccc2)s1	105	37	45	-2.0	i	1.1	-3
O=C(Nc1ccccc1Cl)Nc1cccnc1Cl	103	19	127	x	i	1	10
CCN(CC(=O)NC(C)C)C(=O)C(CCSC)NC(=O)c1ccccc1OC (stereo not given)	103	x	x	x	i	1	-8
O=C(CSc1nnc(C2COc3ccccc3O2)o1)NC1CCCCC1 (stereo not given)	101	x	x	-1.3	i	0.92	-5
COc1ccc(C)cc1NC(=O)c1nnn(CCc2ccccc2)c1N	101	x	x	-2.4	i	0.74	0
COc1ccc(NS(=O)(=O)c2ccc(-c3n[nH]c(=S)n3Cc3ccccc3)cc2)cc1	103	x	x	x	i	0.98	x
O=C1C[C@@H](c2ccc(O[C@@H]3O[C@H](CO)[C@@H](O)[C@H](O)[C@H]3O)cc2)Oc2cc(O)ccc21	37	-40	78	-1.1	i	0.85	-6
O=C(O)c1ccc(S(=O)(=O)N(Cc2cccs2)CC2CCCO2)cc1 (stereo not given)	105	x	x	x	i	1.2	x
Cc1ccc(C(=O)Nc2nc(=O)n(C(=O)C3CC3)s2)cc1	106	34	63	-1.9	i	1	6
O=C(CN1C(=O)CCS(=O)(=O)c2ccccc21)Nc1ccc2c(c1)OCCO2	88	-25	105	-1.4	i	0.94	-1
Cc1cccc(Nc2nnc(SCC(=O)Nc3ccc(C(=O)O)cc3)s2)c1	106	x	x	x	i	1.1	1
CSc1nc(Sc2ccccc2Cl)c2ccccc2n1	102	27	60	0.1	i	0.91	3
Cc1cccc(-n2nnnc2SCC(=O)NCCN2C(=O)CSC2=O)c1	100	x	x	1.6	i	0.9	4
NS(=O)(=O)c1ccc(CCNc2ncnc3sccc23)cc1	147	27	90	-2.2	i	0.88	-13
CCc1nc(OCCN(CC)CC)c2oc3ccccc3c2n1	102	33	79	-2.1	i	0.75	-9

5 entries from above, ordered by heavy-atom count, lowest first.
SMILES	RGS16-Gao HTS	Insulin prom inh	Insulin prom inh cell count	GALR2 agonist	HSV augment	HSV augment primary fold	PKD1 inh
CSc1nc(Sc2ccccc2Cl)c2ccccc2n1	102	27	60	0.1	i	0.91	3
Cc1ccc(C(=O)Nc2nc(=O)n(C(=O)C3CC3)s2)cc1	106	34	63	-1.9	i	1	6
NS(=O)(=O)c1ccc(CCNc2ncnc3sccc23)cc1	147	27	90	-2.2	i	0.88	-13
CCc1nc(OCCN(CC)CC)c2oc3ccccc3c2n1	102	33	79	-2.1	i	0.75	-9
Cc1cccc(-n2nnnc2SCC(=O)NCCN2C(=O)CSC2=O)c1	100	x	x	1.6	i	0.9	4

The results go on.
SMILES	RGS16-Gao HTS	Insulin prom inh	Insulin prom inh cell count	GALR2 agonist	HSV augment	HSV augment primary fold	PKD1 inh
CC1CCCC(C)N1c1nnc(NC(=O)Cn2c(=O)oc3ccccc32)s1 (stereo not given)	108	x	x	-1.5	i	1	-2
O=C(c1ccc(Cl)cc1)N1CCN(c2ccc(F)cc2)CC1	112	-38	109	-0.5	i	0.9	-4
NNc1ccc2nnc(C(F)(F)C(F)(F)C(F)(F)F)n2n1	113	x	x	x	i	0.81	-10
O=C(CNC(=O)c1cccs1)OCC(=O)c1cccs1	99	-36	77	-1.6	i	0.97	-4
CCSc1ccc(-c2nn(-c3ccccc3)cc2/C=C(/C#N)C(=O)NC)cc1	104	55	102	26*	i	1.1	2
O=C1Cn2c(nc3ccccc32)N1c1cccc(C(F)(F)F)c1	108	0	52	-1.5	i	0.91	-6
O=C(Cc1cccs1)NCCc1csc(-c2ccccc2)n1	93	x	x	x	i	1.3	x
CCN1C(=O)/C(=C/c2nc3ccccc3c(=O)[nH]2)c2ccccc21	101	x	x	0.0	i	0.81	-5
Cc1ccc(C(=O)COC(=O)c2cc(Cl)nc3ccccc23)cc1C	805	0	106	-4.0	i	0.84	1
C/C=C/c1ccc(OCC(=O)O)c(OC)c1	104	x	x	x	i	0.92	x
CCCc1cc(=O)[nH]c(SCC(=O)N(Cc2ccccc2)C(C)C)n1	95	x	x	-0.9	i	1	-12
OCCNc1c2ccccc2nc2c(F)c(F)c(F)c(F)c12	104	-181	27	0.6	x	x	-6
O=[N+]([O-])c1ccc(Oc2cccc3cccnc23)c([N+](=O)[O-])c1	98	x	x	-0.7	i	1.3	-2
O=C(CN1C(=O)NC2(CCCCCCC2)C1=O)NCc1ccc2c(c1)OCO2	101	13	139	-0.4	i	1	-1
CCCCCCc1c(O)nc(SCC(=O)O)[nH]c1=O	101	x	x	x	i	1	-7
CCCc1cc2c(=O)c(-c3ccccn3)c(C)oc2cc1O	107	13	67	-0.1	i	0.96	-9
CCOC(=O)c1cnc2scnn2c1=O	99	-43	154	-1.9	i	0.85	-6
Cc1ccc(N=N/C(=C\O)C(=O)c2ccncc2)cc1	101	-17	79	-2.1	i	0.79	9
CCNc1nc(OC)nc(SCC(N)=O)n1	103	-11	100	-2.0	i	0.88	6
CCOC(=O)Cc1cc(=O)n(-c2nc3ccccc3s2)[nH]1	99	-25	113	-1.4	u	x	-15
O=c1cc(N2CCN(c3ccc(F)cc3)CC2)[nH]c(=O)n1C1CCCCC1	112	57	41	-2.7	i	0.68	0
CCOC(=O)N1CCN(C(=O)CNCc2cccs2)CC1	117	-29	63	-0.9	i	1	6
Cn1c(=O)c2nc(-c3ccccc3)oc2c2ccccc21	100	40	129	0.1	i	0.68	7
CCc1ccc(OCC(=O)N/N=C\c2ccco2)c([N+](=O)[O-])c1	110	x	x	0.7	i	0.97	2
O=C(Nn1cnnc1)c1ccccc1CCc1ccccc1	92	29	159	0.4	i	0.99	1
c1ccc(CN2c3ccccc3-c3nc4ccccc4n3C2c2ccccn2)cc1 (stereo not given)	97	-8	103	-1.8	i	0.92	1
CC(=O)Nc1ccc(NC(=O)C2CCN(c3ccc(C(F)(F)F)cn3)CC2)cc1	97	31	140	x	i	0.99	0
OC1(c2ccc(Cl)cc2)CCN(Cc2cn[nH]c2-c2ccccc2)CC1	98	x	x	x	i	0.87	x
COC(=O)c1cc(Br)c(=O)n(CCc2ccc(O)cc2)c1	102	-18	147	1.0	i	1	-5
C=CCn1c(-c2ccco2)n[nH]c1=S	100	x	x	-3.4	i	1	5
O=C(Cc1ccc(F)cc1)N1CCN=C1SCc1cccc([N+](=O)[O-])c1	102	x	x	x	i	0.88	-6
CCOC(=O)C1=C(O)C(=O)N(CCCn2ccnc2)C1c1ccc(C)cc1 (stereo not given)	103	x	x	x	i	0.99	1
COC(=O)c1cc(F)c(-n2cncn2)c(F)c1	112	-25	54	-1.4	i	0.81	-7
N#Cc1c(Cl)c(Cl)c2nnc(-c3ccc(Br)cc3)n2c1Cl	102	x	x	0.0	i	1.2	0
CN(C=O)CP(=O)(O)CN1CCCCC1	106	23	38	-0.6	x	x	-12
Oc1oc(-c2ccccc2)nc1C=Nc1cccc2ccccc12	102	-37	143	0.6	i	1	1
CCNC(=O)N1C(CC(=O)OCC)C(=O)NC2CCCCC21 (stereo not given)	104	0	103	-3.1	i	1	-2
CNC(=O)CSc1nnc(C(C)C)n1C	109	x	x	x	i	0.93	0
N#Cc1c(NC(=O)CSc2nc(N)cc(=O)[nH]2)sc2c1CCCCCC2	101	26	60	-0.1	i	0.73	6
O=C(/C=C/c1ccc(F)cc1)N1CCN(c2ccccn2)CC1	104	19	115	-0.5	i	1	-12

Ordered by value in GALR2 agonist (high to low): some entries from above.
Molecule	RGS16-Gao HTS	GALR2 agonist	HSV augment primary fold	PKD1 inh
N#Cc1c(Cl)c(Cl)c2nnc(-c3ccc(Br)cc3)n2c1Cl	102	0.0	1.2	0
O=C(/C=C/c1ccc(F)cc1)N1CCN(c2ccccn2)CC1	104	-0.5	1	-12
CCNC(=O)N1C(CC(=O)OCC)C(=O)NC2CCCCC21 (stereo not given)	104	-3.1	1	-2

(listing goes on)
SMILES	RGS16-Gao HTS	Insulin prom inh	Insulin prom inh cell count	GALR2 agonist	HSV augment	HSV augment primary fold	PKD1 inh
O=C(CCN1CCN(CCO)CC1)Nc1cccc(Br)c1	112	x	x	x	i	1	x
CC(C)OC(=O)c1c(N)n(CCCN2CCOCC2)c2nc3ccccc3nc12	100	-8	91	3.0	i	1.1	-4
Cc1ccc(NC(=O)CN(C)S(=O)(=O)c2cccc3cccnc23)cc1	130	x	x	-1.6	i	1.1	5
COc1ccc(-n2nc3c(c2NC(=O)C24CC5CC(CC(C5)C2)C4)CS(=O)C3)cc1 (stereo not given)	100	x	x	-3.0	i	1	0
COc1ccc(CNCC(O)(c2ccc(Cl)cc2)c2ccc(Cl)cc2)cc1	98	x	x	-0.3	i	0.79	-6
Cc1nc(-c2ccc(NC(=O)c3ccccc3C)cc2)cs1	97	x	x	x	i	0.89	8
CCOC(=O)C1C(=O)OC2(CCOC(C)(C)C2)C1C(=O)OCC (stereo not given)	97	-79	60	-0.8	i	0.94	-8
Cc1ccc(C2CC(C(F)(F)F)n3nc(C(=O)NCc4c(C)nn(C)c4C)c(Cl)c3N2)cc1 (stereo not given)	100	-15	97	0.1	i	0.79	0
CSC1=N/C(=C\c2ccccc2Cl)C(=O)N1N(C)C	107	x	x	x	i	1	x
COc1ccc(NC(=O)c2ccc(-c3ccccc3Cl)o2)cc1	97	19	120	-1.5	i	1.1	-1
CC1(C)CC(=O)C2=C(C1)OC(/N=C/N1CCCC1)=C(C#N)C2c1ccccc1 (stereo not given)	102	x	x	x	i	0.86	x
CCCN1CCC(NC(=O)Nc2ccc(F)cc2F)CC1	104	0	128	-2.0	i	0.96	0
Cc1cc2c(sc3c(C)ccc(C)c32)c(C)n1	102	x	x	x	i	1	x
